# Assay outcomes as filed in PubChem BioAssay.
# GALR2 ag: GALR2 receptor agonists, primary screen, cell-based. activation, %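 (tested at 5 µM)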. AID 803, 2007. Galanin receptor type 2 (Homo sapiens), O43603. 0.48% of 140,000 active. GALR2-expressing cells, agonist activation read-out;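 active means above mean plus 3 SD of all compounds, about 5% in these data, not always enough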;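 further: 0% = vehicle buffer wells and 100% = reference agonist at full effect; tested in CHO reporter cells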
# Target sequence (O43603 whole entry, looked up): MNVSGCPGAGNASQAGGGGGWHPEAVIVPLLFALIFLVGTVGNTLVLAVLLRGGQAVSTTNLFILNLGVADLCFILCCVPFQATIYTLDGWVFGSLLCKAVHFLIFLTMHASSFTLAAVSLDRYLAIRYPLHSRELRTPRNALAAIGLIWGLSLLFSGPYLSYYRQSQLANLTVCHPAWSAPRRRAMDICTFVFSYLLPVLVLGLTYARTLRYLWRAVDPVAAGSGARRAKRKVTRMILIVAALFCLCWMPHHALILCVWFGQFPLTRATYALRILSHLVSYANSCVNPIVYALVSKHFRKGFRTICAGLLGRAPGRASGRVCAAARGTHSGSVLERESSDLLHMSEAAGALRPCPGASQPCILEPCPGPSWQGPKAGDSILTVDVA
# PKD1 inh: inhibitors of human PKD1 kinase, biochemical, fluorescence polarization | PKD1 kinase fluorescence polarization assay | inhibition, %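 (about 10 µM by stock and volumes)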 | 0.056% of 200,000 active | AID 797, 2007;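 active means inhibition of 50% or more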;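 further: controls were vehicle for no effect and a reference inhibitor for full effect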
# RGS16-Gao HTS: modulators of RGS16 binding to Galphao, primary screen, biochemical, human proteins, multiplexed bead flow cytometry; AID 1441, 2008; 0.38% of 220,000 active; bead-based flow cytometry RGS16-Galphao binding, fluorescence; actives lie on both sides; Regulator of G-protein signaling 16 (Homo sapiens) + Guanine nucleotide-binding protein …; binding response (% of control), % at 10 µM;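 active means below 25% or above 175%, edge rows of some plates excepted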;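 further: Galphao activated by GDP with aluminum fluoride before binding; 100% = wells without compound and 0% = beads without RGS; some results beyond the cut were filed as inactive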
# Target sequence (O15492 whole entry, looked up): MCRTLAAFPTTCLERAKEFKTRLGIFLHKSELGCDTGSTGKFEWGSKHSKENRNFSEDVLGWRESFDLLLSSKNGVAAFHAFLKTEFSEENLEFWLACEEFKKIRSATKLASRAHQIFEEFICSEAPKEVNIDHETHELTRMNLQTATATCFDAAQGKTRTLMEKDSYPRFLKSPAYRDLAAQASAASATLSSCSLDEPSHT
# Target sequence (P09471 whole entry, looked up): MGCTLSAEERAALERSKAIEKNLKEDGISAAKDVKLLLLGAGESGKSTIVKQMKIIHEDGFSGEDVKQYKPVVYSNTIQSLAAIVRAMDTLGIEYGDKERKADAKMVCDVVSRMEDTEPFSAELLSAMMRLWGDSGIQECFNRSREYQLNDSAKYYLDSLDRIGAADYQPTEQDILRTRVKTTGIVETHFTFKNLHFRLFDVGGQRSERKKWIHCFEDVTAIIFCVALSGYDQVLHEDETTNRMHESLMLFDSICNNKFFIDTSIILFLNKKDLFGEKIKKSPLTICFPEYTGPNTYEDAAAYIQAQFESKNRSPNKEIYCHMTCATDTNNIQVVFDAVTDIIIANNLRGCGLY
# Insulin prom inh: inhibitors of insulin promoter-driven GFP, primary screen, imaging, TRM-6 cells (human fetal islet line), eGFP reporter, cell count. inhibition, % at 2 µM. AID 1273, 2008. 0.9% of 130,000 active. reporter expression induced with tamoxifen;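 active means inhibition above the mean plus 3 SD, with well images judged a real hit on visual review, cut at about 60% in these data, passing the limit was not always enough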
# HSV augment: enhancers of HSV replication in host cells, fold increase, host cell viability; HSV replication augmentation in cells; maximum fold increase; 0.005% of 220,000 active; AID 1956, 2009;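 active means peak rise of 1.5-fold or more in the series; tested in PC3 cells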;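 further: first round at 10 µM; read as green reporter fluorescence; hits show the peak of a series up to 25 µM; 1 = signal of infected wells without compound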
# Insulin prom inh cell count: second read-out of Insulin prom inh, no call of its own (marks repeat the call); normalized cell count, %; measured here: cell count, toxicity; reference of the scale not given here;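 cells exposed to compound for 48 h; stained nuclei by imaging scaled within each plate; lower means fewer cells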
# HSV augment primary fold: recorded beside HSV augment, whose call it bears; fold increase; compound at 10 µM; measured here: primary screen fold increase 10 uM; tested in PC3 cells;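 GFP signal in the first replicate; 1 = infected wells without compound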
# * hit, by the source's call; i = inactive; . = not tested or not shown. Hits appear at their usual frequency. Share with any hit: about 1.3%.
canonical_smiles,GALR2 ag,PKD1 inh,Insulin prom inh cell count,Insulin prom inh,RGS16-Gao HTS,HSV augment primary fold,HSV augment
CCc1nnc(NC(=O)c2ccc(OC)cc2OC)s1,0.3,1,111,-66,70,0.67,i
CCCCCCCC#Cc1ccccc1/C=N/S(=O)c1ccc(C)cc1 (configuration not stated),-2.1,-9,101,38,90,.,.
Cc1cc(C)nc(SCCS(=O)(=O)Cc2ccccc2)n1,0.1,-12,84,5,94,0.81,i
NNC(=O)c1csc(CS(=O)(=O)c2ccc(Cl)cc2)n1,.,.,.,.,101,0.9,i
Brc1ccc(Nc2nc(-c3cccnc3)cs2)cc1,.,4,.,.,97,0.94,i
O=C(NC1CC2CCC(C1)N2C(=O)NC1CCCCC1)NC12CC3CC(CC(C3)C1)C2 (configuration not stated),-2.4,-8,.,.,105,0.77,i
O=C(COc1ccccc1Cl)Nc1ccc(CN2CCCCC2)cc1,.,-4,.,.,102,0.91,i
COn1c(C)c(C)c2c3nonc3ccc21,.,.,.,.,120,1,i
Nc1c(C(=O)NCc2ccccc2)c2nc3ccccc3nc2n1CCCN1CCOCC1,16*,3,105,-43,108,0.74,i
COc1ccc(CNC(=O)c2sc(=S)n(-c3ccc(OC)cc3)c2N)cc1,-1.5,-7,95,32,87,0.79,i
NC(=O)c1ccc(N2CCN(S(=O)(=O)c3ccccc3)CC2)c([N+](=O)[O-])c1,.,-7,144,-33,105,0.91,i
CCOCCCNC(=O)c1ccc(CS(=O)(=O)Cc2ccc(C)cc2)o1,-1.1,-11,116,0,100,0.8,i
O=C(COc1ccc(-c2nnco2)cc1)NC1CCCc2ccccc21 (configuration not stated),-1.3,6,109,32,78,0.99,i
Nc1nc(NCC2CCCO2)nc(Nc2ccc(Cl)cc2)c1[N+](=O)[O-] (configuration not stated),.,.,.,.,96,0.85,i
Cc1ccc(S(=O)(=O)N(C)C)cc1NC(=O)COc1ccc(-c2nnco2)cc1,.,.,.,.,99,0.89,i

canonical_smiles,GALR2 ag,PKD1 inh,Insulin prom inh cell count,Insulin prom inh,RGS16-Gao HTS,HSV augment primary fold,HSV augment
O=C(Cc1c[nH]c2ccccc12)N/N=C/c1cccc(F)c1,-0.8,12,.,.,100,0.92,i
CCOc1ccc(Oc2cc(N)cc([N+](=O)[O-])c2)cc1,.,-12,88,27,97,1,i
COc1ccccc1N1CCN(C(=O)CSc2ncnc3c2cnn3-c2ccc(C)c(C)c2)CC1,.,.,.,.,90,0.86,i
COc1ccccc1NC1=C(NC(C)=O)C(=O)c2ccccc2C1=O,.,-2,.,.,94,0.83,i
CCN(CC)S(=O)(=O)c1cccc(C(=O)Nc2nncs2)c1,-1.1,-6,80,35,99,0.92,i
C=CCc1c(C)nc2c(C)cccc2c1SC(=N)N,.,.,.,.,98,0.95,i
N=c1n(CCN2CCCC2)c2ccccc2n1CC(O)c1ccc(Cl)c(Cl)c1 (configuration not stated),.,1,.,.,111,0.62,i
CCCCCCSC1=C(C#N)C(c2ccc(C)o2)CC(=O)N1 (configuration not stated),-1.8,3,.,.,74,1.2,i
COC(=O)CN1C(=S)N(c2ccccc2)C(=O)C1CC(=O)Nc1ccc(Cl)cc1 (configuration not stated),-0.2,0,128,7,104,0.92,i
CN(C)/C=C/C(=O)c1nnn(C2CCCCC2)c1NC1CCCCC1,0.6,-3,164,-55,101,1.1,i
O=C(COC(=O)c1ccccn1)Nc1cc(Cl)ccc1Cl,-0.8,-4,.,.,84,0.75,i
CC(=O)N1C(=O)N(C)C2C1N(C(C)=O)C(=O)N2C (configuration not stated),-1.2,-10,139,25,103,1.1,i
C=CCn1c(COc2ccc(Cl)cc2)nnc1SCC(=O)c1c(N)n(C)c(=O)n(C)c1=O,.,1,.,.,103,0.98,i
Cc1ccc2cc(CCNS(=O)(=O)c3ccc(F)cc3)c(=O)[nH]c2c1,-1.6,-1,168,30,99,1,i
CC(=O)Nc1ccc(C(=O)OCC(=O)c2cccc([N+](=O)[O-])c2)cc1,-0.8,-3,.,.,103,0.97,i

canonical_smiles,GALR2 ag,PKD1 inh,Insulin prom inh cell count,Insulin prom inh,RGS16-Gao HTS,HSV augment primary fold,HSV augment
Cn1c(SCC(=O)Nc2ccc(N3CCOCC3)cc2)nnc1-c1ccccc1,-0.4,0,82,9,101,0.95,i
CCC1=C(OC(=O)N(CC)CC)N2C(=O)OC(=NCCc3c[nH]c4ccccc34)[C@]2(C)[C@H]2C1=CC[C@H]1C(=O)N(C)C(=O)[C@H]12,.,.,.,.,99,0.89,i
CCO/C(C)=C1\N=C(c2ccc(Cl)cc2)OC1=O,-0.8,3,.,.,92,1.1,i
O=C(Nc1ccccc1C(=O)Nc1ccc2c(c1)OCO2)c1ccco1,-0.1,-4,75,-33,102,0.83,i
COC(=O)c1sc2cc(=O)n(-c3cccc(C(F)(F)F)c3)nc2c1O,.,-3,112,56,101,0.81,i
COc1ccc(CN(C)C2CCCCC2)cc1,-0.6,-2,123,-30,90,0.78,i
Cn1cc(C(=O)N/N=C/c2cccc(O)c2)ccc1=O,.,-15,.,.,103,0.92,i
COc1ccc(NC(=O)C/C(C)=N/NC(=O)C(=O)NC2CCCCC2)c(OC)c1,.,-2,117,-150,97,0.94,i
CC(=O)c1cccc(N2Cc3ccccc3C2=NC(=O)CCl)c1,.,-6,133,-84,97,1,i
CCOC(=O)N1CCC(NC(=O)c2ccc(OC)c(CN3CC(=O)N4CCCC4C3=O)c2)CC1 (configuration not stated),-1.8,2,107,-22,100,0.69,i
CCn1nc(C(=O)NNC(=O)COc2ccc(OC)cc2)c2ccccc2c1=O,-1.0,6,139,47,101,0.9,i
CC1CN(c2cc(-c3ccccc3)c3ccccc3n2)CC(C)O1 (configuration not stated),-2.6,-1,103,-64,48,1,i
CCCc1nc([N+](=O)[O-])c(S(=O)(=O)c2ccccc2)n1CC(C)C,-2.3,-5,68,45,74,0.58,i
CN(C)/C=C1\C(=O)Nc2ccccc21,-1.1,-2,.,.,101,0.9,i
COc1ccc(OCCOCC(O)CN2CCOCC2)cc1 (configuration not stated),-2.6,7,91,33,99,1,i

canonical_smiles,GALR2 ag,PKD1 inh,Insulin prom inh cell count,Insulin prom inh,RGS16-Gao HTS,HSV augment primary fold,HSV augment
CC(=O)C1=C(C)N(Cc2ccccc2)C(=O)N[C@H]1CCc1ccccc1,-1.1,-10,79,-10,100,0.89,i
COc1ccccc1NS(=O)(=O)/C=C/c1ccccc1,-1.2,-7,86,0,111,0.91,i
COC(=O)CCSc1cc([N+](=O)[O-])cc2c1c(C1OCCO1)nn2-c1ccccc1,0.1,0,117,0,101,0.93,i
CCN(CC)c1ccc(/C=N\NC(N)=O)cc1,-0.1,-5,.,.,109,0.9,i
Cc1nc(C)c(C(=O)Nc2ccc(C)c(F)c2)o1,-1.6,-13,71,-196,251,0.93,i
O=C(O)CCN1C(=O)/C(=C/c2ccc(-c3nc4ccccc4s3)o2)SC1=S,-0.1,-12,100,-2,98,.,.
CCN1C(=O)/C(=C2/C=Cc3ccccc3N2C)OC1=S,-1.0,2,81,-17,100,0.93,i
Cc1cccc(NC(=O)c2ccc(NCC3CCCO3)c([N+](=O)[O-])c2)c1 (configuration not stated),-1.9,-14,60,44,101,1,i
CCSc1nc(C)nc2sc(C)c(C)c12,.,.,.,.,105,0.97,i
Oc1ccc(N=Cc2c(O)ccc3ccccc23)cc1,.,.,.,.,101,0.85,i
CCCCNC(=O)CCC(=O)Nc1ccc2nc(N3CCCCC3)cc(C)c2c1,.,4,.,.,91,0.93,i
CCOC(=O)C(=O)Nc1ccc(S(=O)(=O)N2CCOCC2)cc1OC,0.9,10,95,-40,96,0.8,i
CCc1ccc(NC(=O)CSc2nnc(Cc3cccn3C)n2-c2ccc(OC)cc2)cc1,-2.1,0,.,.,101,0.81,i
Cc1oc(-c2cccc(C(F)(F)F)c2)nc1CN1CCN(c2ccccn2)CC1,.,-1,126,-17,103,0.88,i
CCOC(=O)c1cc(CC)sc1NC(=O)c1cc(OCC)c(OCC)c(OCC)c1,1.1,2,115,0,94,0.89,i

# Three entries from above, ordered by heavy-atom count, largest number first:
canonical_smiles,GALR2 ag,PKD1 inh,Insulin prom inh cell count,Insulin prom inh,RGS16-Gao HTS,HSV augment primary fold,HSV augment
O=C(O)CCN1C(=O)/C(=C/c2ccc(-c3nc4ccccc4s3)o2)SC1=S,-0.1,-12,100,-2,98,.,.
Cc1nc(C)c(C(=O)Nc2ccc(C)c(F)c2)o1,-1.6,-13,71,-196,251,0.93,i
CCSc1nc(C)nc2sc(C)c(C)c12,.,.,.,.,105,0.97,i

# Other entries
canonical_smiles,GALR2 ag,PKD1 inh,Insulin prom inh cell count,Insulin prom inh,RGS16-Gao HTS,HSV augment primary fold,HSV augment
CSc1nc(N(C)C)nc(N(C#N)CCOC(C)=O)n1,.,-2,103,0,101,0.83,i
N#CC1CN(C(c2ccccc2)c2ccccc2)C1,.,-6,90,47,102,0.93,i
CCOCc1nnc(NC(=O)COC)s1,-0.2,-6,131,-23,109,0.8,i
C(=C\c1ccncc1)/c1ccccc1,.,.,.,.,108,1.1,i
NS(=O)(=O)c1ccc(NC(=O)COC(=O)c2ccc(Cl)nc2)cc1,.,-1,.,.,96,0.99,i
C=CCNC(=S)NNC(=O)c1cccc(Br)c1,-1.8,-11,.,.,100,0.98,i
O=C(CSc1nc(-c2cccs2)cc(C(F)(F)F)n1)NCCCn1ccnc1,-0.7,0,134,33,103,0.78,i
COc1ccc(C2=NN(C(=O)/C=C/c3ccccc3)C(c3ccccc3)C2)c(OC(C)=O)c1 (configuration not stated),-0.1,-4,.,.,75,0.95,i
Cc1ccc(/C=N/n2c(-c3ccco3)n[nH]c2=S)cc1,.,.,.,.,96,1.2,i
Cc1c(C)n(CC(O)CN2C(=O)c3ccccc3S2(=O)=O)c2ccccc12 (configuration not stated),-1.3,-3,120,-37,102,0.99,i
CCOC(=O)Cn1c(C)nc2ccccc21,-0.2,3,.,.,104,0.95,i
S=C(Nc1ccc(Cl)cc1)NC1CCN(Cc2ccccc2)CC1,-1.4,4,74,-6,98,0.76,i
CCOc1ccccc1NC(=S)/C(=C(\[O-])c1ccc2c(c1)OCCO2)[n+]1ccc(CC)cc1,-2.2,-1,.,.,106,0.99,i
COc1cc(C(F)(F)F)c(C(=O)N(C)c2ccc(Cl)cc2)cn1,.,.,.,.,101,1.1,i
CCCCSc1nc2c(c(C(F)(F)F)c1C#N)CCC2,-1.1,-2,51,-438,105,0.68,i

canonical_smiles,GALR2 ag,PKD1 inh,Insulin prom inh cell count,Insulin prom inh,RGS16-Gao HTS,HSV augment primary fold,HSV augment
Nn1c(SCc2cn3ccsc3n2)nnc1-c1ccncc1,-1.4,2,68,26,102,.,.
COc1cccc(C(c2c(N)[nH]c(=S)[nH]c2=O)c2c(N)[nH]c(=S)[nH]c2=O)c1,.,.,.,.,100,0.94,i
c1coc(-c2nnc(SCc3nc4ccccc4[nH]3)o2)c1,-2.8,6,.,.,104,1,i
C=CCN(C(=O)c1cc(C)cc(C)c1)C1(C(=O)Nc2ccccc2)CCN(C(C)C)CC1,.,-2,68,-82,107,0.89,i
CCN(CC)CCNC(=O)/C(=N\O)c1ccccn1,.,-4,60,-71,105,0.98,i
COc1cc(/C=C(\C#N)c2ccccn2)ccc1OCc1ccccc1,0.3,-4,.,.,103,1,i
CCc1ccccc1NC1=CC(=O)CC(C)(C)C1,.,6,.,.,103,1,i
O=C(Cc1cccs1)Nc1nnc(SCc2ccc(Br)cc2)s1,-0.8,-8,.,.,97,.,.
CC(=O)Nc1cccc(C(=O)/C=C/c2ccco2)c1,-1.6,-11,99,39,100,1,i
CNC(=O)CN(Cc1ccccc1)S(=O)(=O)c1ccccc1,-1.0,-6,.,.,97,0.95,i
Cc1ccc(NC2CC(=O)N(CCc3ccccc3)C2=O)cc1 (configuration not stated),-0.9,-7,96,23,38,0.93,i
Cc1nc2cc(C(=O)OCC(=O)Nc3ccc(C#N)cc3)ccc2n1-c1ccccc1,-1.5,-8,109,-14,133,0.97,i
COc1cc(/C=N/n2cnnc2)ccc1OCc1ccccc1,-0.1,-2,101,22,96,0.92,i
COc1ccc(/C=N\Nc2ccccc2[N+](=O)[O-])c(C(=O)O)c1OC,.,.,.,.,101,0.96,i
COC(=O)C1=C(C)NC(=O)NC1c1ccc(-c2ccccc2Cl)o1 (configuration not stated),.,-7,.,.,104,0.89,i
CCOC(=O)c1sc(=NC(=O)c2ccc(S(=O)(=O)N3CC(C)OC(C)C3)cc2)n(C)c1C (configuration not stated),-0.9,-2,.,.,99,0.97,i
